HNF4A DNA FP – change in binding of human HNF4 alpha to DNA. P41235. HNF4a-FITC DNA binding, fluorescence polarization, 1 h. activity change, % at 10 µM. 360,000 tested, 0.3% active; in the data active = activity change above about 30%, passing the limit was not always enough;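 note: controls were the assay level and a saturating level of protein; the project sought stronger binding though the title names inhibitors; some compounds called inactive have numbers as strong as hits; positive values seem to mean higher polarization but the record does not say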
Target sequence (P41235 whole entry, looked up): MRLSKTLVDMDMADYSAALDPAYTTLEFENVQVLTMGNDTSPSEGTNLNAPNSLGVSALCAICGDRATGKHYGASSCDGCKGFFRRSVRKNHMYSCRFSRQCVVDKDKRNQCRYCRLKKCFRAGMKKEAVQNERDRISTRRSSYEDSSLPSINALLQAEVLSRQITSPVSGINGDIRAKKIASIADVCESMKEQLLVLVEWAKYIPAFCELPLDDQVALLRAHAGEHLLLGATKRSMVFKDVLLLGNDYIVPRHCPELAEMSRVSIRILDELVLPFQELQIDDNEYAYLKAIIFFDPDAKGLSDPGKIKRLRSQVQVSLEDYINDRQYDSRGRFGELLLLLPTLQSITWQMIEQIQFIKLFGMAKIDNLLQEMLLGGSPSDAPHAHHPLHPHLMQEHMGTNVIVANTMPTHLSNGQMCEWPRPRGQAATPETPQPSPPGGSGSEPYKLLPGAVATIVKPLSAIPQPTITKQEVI
B2AR ag – human beta-2 adrenergic receptor agonism by FAP. response, % (no concentration beside the values). 340,000 tested, 0.43% active. P07550. Am2.2-beta2AR cells, FAP receptor internalization, flow cytometry; reference of the scale not given here. AID 504454;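 active = response above a set limit, near 3 SD of response in nonfluorescent compounds, cut at about 42% in these data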;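 note: stock transfer was 100 nL into about 11 µL; a reference agonist was the positive control; negative values mostly stem from fluorescent compounds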
Target sequence (P07550 whole entry, looked up): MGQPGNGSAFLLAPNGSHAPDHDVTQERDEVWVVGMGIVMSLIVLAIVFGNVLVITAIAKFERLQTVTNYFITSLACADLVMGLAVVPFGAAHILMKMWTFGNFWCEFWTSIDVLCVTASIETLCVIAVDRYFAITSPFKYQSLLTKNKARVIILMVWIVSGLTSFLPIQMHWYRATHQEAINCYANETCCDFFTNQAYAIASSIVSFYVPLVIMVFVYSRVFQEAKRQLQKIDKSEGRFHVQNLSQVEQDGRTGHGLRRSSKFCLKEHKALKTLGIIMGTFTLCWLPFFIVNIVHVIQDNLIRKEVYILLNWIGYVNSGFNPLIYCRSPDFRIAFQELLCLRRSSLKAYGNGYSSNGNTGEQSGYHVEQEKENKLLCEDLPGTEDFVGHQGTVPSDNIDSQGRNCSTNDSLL
Calb FLC – C. albicans growth modulation with fluconazole; growth inhibition, % (no concentration beside the values); C. albicans CaCi-2 (fluconazole-resistant clinical isolate) + fluconazole, Alamar Blue growth, 48 h; 300,000 tested, 0.57% active; AID 1979;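 active = most replicates above 75%; inconclusive = exactly half above 75%; inactive = most below 75%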;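 note: all wells also contain fluconazole at 8 µg/ml as a sub-toxic cotreatment; 0% = median of DMSO wells and 100% = median of geldanamycin control wells; wells of about 8 µL received 7.5 nL stock; the first replicate is given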
LANA-H2A inh – blocks KSHV LANA binding to histone H2A/H2B | Q9QR71 | cell-free LANA-H2A/H2B peptide, fluorescence polarization | inhibition, % (test concentration not listed) | 320,000 tested, 0.6% active | AID 2629; in the data active = inhibition mostly above about 10%, no sharp cut-off; inactive = mostly below about 6.7%;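 note: stock transfer was 7.5 nL into about 10 µL; 0% = median of vehicle wells and 100% = median of positive control wells; one replicate is shown; the record names a cut of 25% in any replicate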
RanGTP-Impb inh – disruptors of Ran-importin-beta complex formation – biochemical, FRET, CFP-Ran, YFP-importin-beta, homogeneous, primary screen; cell-free CFP-Ran/YFP-importin-beta FRET ratio; inhibition, % (no concentration beside the values); 300,000 tested, 1.1% active;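 active = most replicates above 15%; inconclusive = exactly half above 15%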;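 note: 0% = DMSO wells and 100% = Ran loaded with GDP instead of GTP; wells of about 40 µL received 100 nL stock; the first replicate is given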
Vif A3G – inhibitors of Vif binding to APOBEC3G peptide, primary screen, biochemical, TR-FRET, GST-Vif 1-94, biotin-A3G peptide, dose response retest (AID 1117319); TR-FRET GST-Vif / biotin-A3G peptide binding; higher % means a stronger effect; test concentration not given here; strong numbers were not always called active; inhibition, %, or IC50 in µM where a hit was titrated; 260,000 tested, 0.57% active;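 active = above the screen mean plus three standard deviations and confirmed in dose response; inconclusive = results disagree or hit not tested in dose response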;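 note: Vif residues 1-94 fused to GST binding biotinylated APOBEC3G peptide 110-148; 0% = full assay without inhibitor and 100% = GST in place of GST-Vif; retest series ran down from 100 µM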
ALR H2O2 inh – human ALR oxidase inhibition via reduced H2O2. P55789. purified ALR, DTT oxidation, H2O2 HRP-luminol luminescence. inhibition, % (test concentration not listed). 290,000 tested, 3.8% active;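 active = mean and each replicate at 75% or more; inconclusive = only one of the two met; inactive = neither met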;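 note: stock transfer was 7.5 nL into about 7.5 µL; 0% = neutral wells and 100% = wells with inactivated enzyme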
Target sequence (P55789 whole entry, looked up): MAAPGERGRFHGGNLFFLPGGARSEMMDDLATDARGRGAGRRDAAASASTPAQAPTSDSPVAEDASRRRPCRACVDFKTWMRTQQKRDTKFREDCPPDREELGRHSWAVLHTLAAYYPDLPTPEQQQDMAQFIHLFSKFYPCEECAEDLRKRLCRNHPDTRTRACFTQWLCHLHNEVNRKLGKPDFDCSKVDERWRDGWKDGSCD
* = called active by the depositor; ? = inconclusive; nt = not tested or not shown.

SMILES	HNF4A DNA FP	B2AR ag	Calb FLC	LANA-H2A inh	RanGTP-Impb inh	Vif A3G	ALR H2O2 inh
O=C1NCCC/C1=N\Nc1ccc(Br)cc1	1.1	5.9	-26.5	-6.1	1.0	-0.6%	99.0*
CCc1ccc(CNC(=O)CCS(=O)(=O)Cc2ccccc2F)cc1	-6.0	-9.4	-8.5	-2.7	-1.1	nt	2.3
CC1CN(CCC(=O)Nc2ccc3c(c2)CCC3)CC(C)O1 (centres undefined)	-1.3	3.3	2.0	3.8	1.8	0.2%	-1.7
O=C1CC(N2CCN(c3ccc(F)cc3)CC2)C(=O)N1Cc1cccs1 (centres undefined)	3.0	3.2	1.1	1.7	2.4	-3.8%	15.9
CS(=O)(=O)c1ccc(Cl)c(NC(=O)CSc2n[nH]c(-c3cccs3)n2)c1	-3.3	6.8	nt	3.4	nt	nt	nt
Cn1cc(/C=C(\C#N)C(=O)Nc2cccc([N+](=O)[O-])c2)c2ccccc21	3.5	40.5	17.2	2.7	-1.3	nt	6.5
Brc1cc2c(cc1/C=N/Nc1nc(N3CCOCC3)nc(N3CCOCC3)n1)OCO2	2.9	9.8	-30.4	-1.1	6.3	nt	-3.7
Cn1c(=O)c2nc(-c3ccccc3)oc2c2ccccc21	2.5	-7.7	?	0.5	-0.8	-7.2%	-0.8
COc1cc2ncnc(NCCCN3CCOCC3)c2cc1OC	-0.5	-1.1	24.3	2.2	4.2	nt	nt
CCOc1ccc(C(=O)NC(=S)Nc2ccccc2N2CCC(C)CC2)cc1[N+](=O)[O-]	-0.9	-3.3	10.5	3.1	-1.3	0.8%	-2.4
Cn1c(-c2cccc([N+](=O)[O-])c2)[n+](C)c2ccccc21	1.4	-1.0	-4.2	-3.0	-0.9	?	-4.4
COC1=C/C(=C/c2c(N)n3nc(CC(=O)N4CCOCC4)sc3nc2=O)C=CC1=O	10.1	21.8	4.2	-6.2	2.0	nt	99.1*
O=C(O)c1ccc(NC(=O)C2(c3ccccc3)CCOCC2)cc1	0.1	4.7	-13.9	-0.3	-4.8	-0.1%	-2.6
COc1cccc(C(=O)Nc2cccc(NC(C)=O)c2)c1	5.3	0.6	4.2	-0.6	6.5	13.6%	-49.5
O=C(O)c1cccc(N2CCCC2=O)c1	-4.7	-1.0	-0.6	5.7	?	-1.5%	4.1
CCN1C(=O)NC(c2cc(Br)ccc2OC)C(C(=O)OC)=C1C (centres undefined)	-1.3	-4.5	-12.1	-0.1	2.5	15.1%	nt
O=C(/C=C/c1cccs1)Nc1ccc(S(=O)(=O)Nc2ncccn2)cc1	-2.7	1.0	-0.9	6.9	4.3	3.9%	2.3
CCCCCCSc1ccc([C@@H]2[C@H]3C(=O)N(C)C(=O)[C@H]3[C@]3(C(=O)OC)CCCCN23)cc1OC	8.2	-1.7	nt	-4.1	nt	nt	-6.7
O=C(/C=C/c1ccc(OC2CSC2)cc1)c1ccccc1	-1.5	-16.0	11.4	6.2	0.5	-4.3%	82.9*
C[C@H](CO)N1C[C@H](C)[C@@H](CN(C)C(=O)Nc2ccc(C(F)(F)F)cc2)Oc2c(NC(=O)Nc3ccccc3)cccc2C1=O	-2.6	7.8	nt	5.6	nt	nt	-4.1
CCOc1cc(S(=O)(=O)NCc2ccc3c(c2)OCO3)ccc1F	-1.0	-1.7	-3.6	4.1	4.2	-1.4%	nt
CCc1ccc(NC(=O)C(=O)N/N=C(\C)CC(=O)Nc2ccccn2)cc1	0.9	-5.8	1.4	1.4	-4.2	nt	1.2
COc1ccc(NC2=NC(=S)N(c3ccccc3C)C23CCCCC3)cc1	4.1	-1.2	3.7	-0.2	-1.7	-2.1%	-17.3
COC(=O)CSc1nnc(CNC(=O)c2ccc(S(=O)(=O)N3CCOCC3)cc2)n1C	-0.6	5.9	-13.7	-4.1	?	0.9%	nt
C/C(=N/NS(=O)(=O)c1ccc(Cl)cc1)c1cccc(NC(=O)c2ccncc2)c1	-0.2	0.4	-16.8	-9.0	?	nt	-4.3

An excerpt from above in order of heavy-atom count, ascending:
SMILES	HNF4A DNA FP	B2AR ag	Calb FLC	LANA-H2A inh	RanGTP-Impb inh	Vif A3G	ALR H2O2 inh
O=C1NCCC/C1=N\Nc1ccc(Br)cc1	1.1	5.9	-26.5	-6.1	1.0	-0.6%	99.0*
Cn1c(-c2cccc([N+](=O)[O-])c2)[n+](C)c2ccccc21	1.4	-1.0	-4.2	-3.0	-0.9	?	-4.4
O=C(/C=C/c1ccc(OC2CSC2)cc1)c1ccccc1	-1.5	-16.0	11.4	6.2	0.5	-4.3%	82.9*
CC1CN(CCC(=O)Nc2ccc3c(c2)CCC3)CC(C)O1 (centres undefined)	-1.3	3.3	2.0	3.8	1.8	0.2%	-1.7
CCN1C(=O)NC(c2cc(Br)ccc2OC)C(C(=O)OC)=C1C (centres undefined)	-1.3	-4.5	-12.1	-0.1	2.5	15.1%	nt
O=C(O)c1ccc(NC(=O)C2(c3ccccc3)CCOCC2)cc1	0.1	4.7	-13.9	-0.3	-4.8	-0.1%	-2.6
O=C1CC(N2CCN(c3ccc(F)cc3)CC2)C(=O)N1Cc1cccs1 (centres undefined)	3.0	3.2	1.1	1.7	2.4	-3.8%	15.9
COc1ccc(NC2=NC(=S)N(c3ccccc3C)C23CCCCC3)cc1	4.1	-1.2	3.7	-0.2	-1.7	-2.1%	-17.3
CCOc1ccc(C(=O)NC(=S)Nc2ccccc2N2CCC(C)CC2)cc1[N+](=O)[O-]	-0.9	-3.3	10.5	3.1	-1.3	0.8%	-2.4

Going on with the list.
SMILES	HNF4A DNA FP	B2AR ag	Calb FLC	LANA-H2A inh	RanGTP-Impb inh	Vif A3G	ALR H2O2 inh
Cc1ccc(NC(=O)CNc2cccc(C)c2C)c(C)c1	0.5	2.2	-1.1	4.1	-2.9	21.8%	0.2
COc1ccc(NS(=O)(=O)c2cccc(C(=O)NNC(=O)CNC(=O)c3ccco3)c2)cc1	3.2	4.6	-3.2	3.4	-4.2	nt	2.3
CCOC(=O)CC(NC(=O)Cn1nnc(-c2ccccc2C)n1)c1ccc(OC)cc1 (centres undefined)	nt	nt	-1.6	-7.9	-0.6	-6.4%	-1.0
CNC(=O)COc1ccc(S(=O)(=O)Nc2ccccc2)cc1	-2.1	3.2	24.2	0.5	-2.2	8.9%	-2.0
O=C(O)c1ccc(C(=O)c2ccc3c(c2)C(=O)N(CC2CCCO2)C3=O)cc1 (centres undefined)	2.1	1.3	-8.8	3.0	2.6	-4.3%	-3.7
O=C(Nc1ccccc1)C(c1ccccc1)C1CCCC1 (centres undefined)	-0.4	-34.8	-6.7	nt	-1.8	nt	nt
COc1ccccc1NC(=O)Cc1cccc2ccccc12	0.9	5.2	14.0	-0.5	-1.3	nt	-5.3
O=C(OCC(=O)N1CCCc2ccccc21)c1cc(S(=O)(=O)N2CCOCC2)ccc1F	-0.8	-3.2	3.8	-3.1	1.0	4.5%	2.4
COc1ccc(OC)c(Cc2nnc(CCC(=O)N3CCCCC3c3nccs3)o2)c1 (centres undefined)	-4.1	-3.0	2.7	-1.3	1.5	nt	-7.6
CNC(=O)c1[nH]cnc1C(=O)Nc1cccc(Cl)c1	2.4	-13.5	nt	2.3	nt	nt	-11.0
COc1ccc(C)cc1NC(=O)c1cc(S(=O)(=O)N2CCC3(CC2)OCCO3)ccc1F	-1.6	-2.5	-4.8	-1.6	2.1	nt	-4.2
CCN(CC(=O)NC(C)C)C(=O)c1ccc(Cl)cc1	2.9	1.8	10.7	-1.4	5.0	nt	-13.0
Cc1ccc(N(C)C(=O)N2CCN(c3ccccn3)CC2)cc1	6.2	-35.5	1.4	0.3	?	-0.7%	4.7
O=C(NCCC1CCCCN1S(=O)(=O)c1ccccc1)C(=O)NCc1ccccc1 (centres undefined)	2.5	-8.5	1.1	-4.0	-2.0	4.4%	1.4
Cc1cccc(/C=C/c2onc(C)c2S(=O)(=O)N2CCC(C(=O)N3CCCCC3)CC2)c1	-1.0	28.5	-1.1	0.6	4.0	4.3%	-3.7
CCOC(=O)CSc1nnc(-c2ccc(OC)cc2)n1CC	0.8	1.2	7.9	1.0	-2.0	-0.6%	-11.8
C=CCc1c(C)nc(SCCC)[nH]c1=O	2.9	12.4	2.1	0.2	0.0	?	-5.8
CC(C)COC(=O)N1CCCC1C(=O)O (centres undefined)	-3.1	0.7	-10.5	2.4	5.5	1.5%	-2.9
O=C(O)c1cc(-c2ccc(O)cc2)on1	0.2	-6.8	100.5*	16.2	-1.2	nt	4.9
CC(Oc1ccc(Br)cc1)C(=O)N1CCC(C(N)=O)CC1 (centres undefined)	-4.8	1.4	2.6	2.4	-3.8	-9.9%	-2.4
NC(=O)c1ccsc1NC(=O)COC(=O)CNC(=O)c1cccc([N+](=O)[O-])c1	-6.7	-0.5	nt	5.7	nt	nt	42.4
CC(C)NC(=O)c1ccc(-n2nc(C(F)(F)F)c3c2CCCC3)cc1	-1.3	-2.0	11.2	0.1	-2.5	nt	0.4
CC1(COS(N)(=O)=O)CCCCC1	0.8	-5.5	-10.6	-12.3	-4.2	nt	-2.4
CCOc1ccc(S(=O)(=O)Nc2cc(OC)ccc2OC)cc1	23.1	21.5	4.4	-1.8	0.6	6.8%	8.2
Cc1ccc(C2CN(C)C3(C(=O)Nc4ccccc43)C23COc2ccccc2C3=O)cc1 (centres undefined)	-1.8	10.1	-10.6	-4.8	-5.2	-3.0%	4.2

(next part)
SMILES	HNF4A DNA FP	B2AR ag	Calb FLC	LANA-H2A inh	RanGTP-Impb inh	Vif A3G	ALR H2O2 inh
O=C(CN1C(=O)c2ccccc2S1(=O)=O)NCCc1ccc(F)cc1	3.0	-0.3	nt	-1.5	nt	nt	3.5
CCCOc1ccc(NC(=O)C2CC(=O)N/C(=N/N=C(C)/C=C/c3ccc(N(C)C)cc3)S2)cc1 (centres undefined)	10.3	8.0	-10.8	-2.9	-9.7	nt	-22.7
Cc1ccc(S(=O)(=O)NCC(=O)OCC(=O)N2CC(=O)Nc3ccccc32)cc1	0.8	-3.0	nt	-2.0	nt	-2.3%	1.9
CCCN(CC(=O)Nc1ccccc1OC)C(=O)CSC(=S)N1CCCC1	3.5	-1.8	nt	2.5	nt	5.7%	40.4
O=C(CNC(=O)OCc1ccccc1)OC(c1ccccc1)c1ccccc1	-0.2	-1.8	nt	nt	nt	3.0%	nt
CCOc1ccc(Nc2cc(Nc3ccccc3OCC)nc(C=C(C#N)C#N)n2)cc1	-0.7	-8.6	-18.8	-8.1	-2.8	nt	-8.1
O=C(c1ccc(S(=O)(=O)c2cccc(Cl)c2)c([N+](=O)[O-])c1)N1CCN(c2ccccn2)CC1	0.0	5.3	9.7	5.6	6.3	5.5%	6.2
CCC/C(C#Cc1cc(OC)cc(OC)c1)=C1/c2ccccc2C(=O)N1c1ccccc1	-0.2	-4.3	nt	3.9	nt	nt	-5.5
CCOC(=O)N1CCN(C(=O)CSCc2ccccc2)CC1	-0.6	9.4	38.5	9.1	-0.3	nt	-2.3
COCC(=O)N(C)C[C@H]1N[C@@](Cc2ccccc2)(C(=O)OC)[C@H]2C(=O)N(Cc3ccccc3)C(=O)[C@@H]12	-1.3	-3.9	nt	-216.8	nt	8.6%	0.0
CCOC(=O)c1ccccc1NC(=O)CSc1nc2[nH]ncc2c(=O)[nH]1	2.2	34.2	-3.1	-0.8	3.8	2.3%	16.1
CCOc1ccccc1NC(=O)c1ccc(C(=O)Nc2ccccc2OCC)nc1	1.1	-4.0	0.8	-1.7	-1.4	nt	12.6
CCOc1ccc(N2C(=O)C3CC(C)=C(C)CC3C2=O)c([N+](=O)[O-])c1 (centres undefined)	-6.3	-1.4	29.6	-9.9	4.2	26.5%	-1.6
CCC(C)n1c(NC(=O)c2ccccc2)c(C#N)c2nc3ccccc3nc21 (centres undefined)	32.6*	-33.4	0.1	-11.2	20.7*	nt	-13.3

Bioassay records as filed in PubChem BioAssay.
